CapD inh – CapD enzyme inhibition; purified CapD enzyme, fluorescence intensity read-out; hits give low values; some hits fall short of the stated cut; 140,000 compounds, 0.23% hits; z-score (no concentration beside the values);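 active means z-score under -4 in either of two replicates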;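 further: stock transfer was 100 nL into about 40 µL; score is relative to mean and spread of the plate; one replicate is shown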
AID504770 – growth inhibitors of E. coli YBA685 in a screen for V. cholerae RctB (chromosome II replication) inhibitors. E. coli YBA685 rctB-dependent plasmid, OD600 growth, 3 h; hits give low values. z-score (test concentration not listed). 130,000 compounds, 0.27% hits;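 active means z-score under -2 on both plates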;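 further: wells of about 30 µL received 100 nL stock; score is relative to mean and SD of the test wells; the first replicate is given; strong numbers were not always called active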
The depositor's hits bear a star; i = inactive; · = no result given.

SMILES	CapD inh	AID504770
COc1ccccc1CN1CCC(C(=O)NCc2ccc(C)cc2)CC1	·	-0.05
COc1ccc(/C=C2\C=C(c3ccccc3)N(c3ccc(C)c(C)c3)C2=O)cc1Br	-0.71	·
O=C(N/C(=C/c1ccccc1)C(=O)N1CCc2ccccc2C1)c1ccccc1	-0.31	-0.25
Cc1ccc(N(CC(=O)N2CCCCCC2)S(=O)(=O)c2c(C)noc2C)cc1	-0.62	0.75
O=C(NO)c1cc(-c2ccccc2)nn1-c1ccccc1	-0.38	0.45
O=C(Nc1ccc(-n2cnnn2)cc1)C1(Cc2nc3ccccc3s2)CCCC1	·	0.3
Cc1cc(C)nc(NC2=NCC(=O)N2c2ccc(Oc3ccccc3)cc2)n1	0.06	-0.35
O=C(CSc1nc2ccccc2c(=O)n1CC1CCCO1)NCC1CCCO1 (stereo not given)	-0.94	-0.9
CCCOC(=O)CSc1n[nH]c(=O)[nH]c1=O	·	-1.6
CCC1CCCCN1C(=O)c1sc2nc(-c3ccccc3)cn2c1C (stereo not given)	0.41	-0.6
O=C(COc1ccc(C(=O)c2ccccc2)cc1)NCC1CCCCC1	0.8	0.35
Nc1c(C(=O)NCc2ccccc2)nnn1Cc1ccccc1	0.32	0.25
N#CC1=C(N)NC(SCC(N)=O)=C(C#N)C1c1ccccc1Cl (stereo not given)	39	-1.2
CCOC(=O)C1CCN(C(=S)Nc2ccccc2C(F)(F)F)CC1	-0.31	·
COc1ccc(SCC(=O)c2ccc(O)cc2O)cc1	·	0.2
Cc1ccc(C(=O)NCCn2cccc2)cc1	·	-0.7
COC(=O)c1cc(NC(=O)c2cnn3c(C(F)(F)F)cc(-c4ccc(C)cc4)nc23)cc(C(=O)OC)c1	0.085	·
Cc1cccc(Oc2nc3cc(Cl)c(Cl)cc3nc2C(F)(F)F)c1C	0.41	·
N#C/C(=N/O)c1nc2ccccc2s1	-4.5*	0.85
COc1ccc(CCNC(=O)c2ccc3c(c2)nc(C)n3-c2cccc(F)c2)cc1OC	-0.29	·
S=C(Cc1ccccc1)N1CCCCC1	-0.93	0.95
CCNC(=O)CCSc1nc(C)cc(C)n1	·	-0.1
Cc1noc(C)c1COC(=O)CCC(=O)c1ccc(F)cc1	·	-0.15
CCC(=O)Nn1cnc2c(cnn2-c2ccccc2)c1=O	·	0.75
CCCN(CCC)C(=O)c1noc2c1CC(C)CC2 (stereo not given)	-0.055	-0.3
CCC(C)(C)NS(=O)(=O)Cc1ccccc1	-0.75	1.2
CC(C)c1ccc(N/C=C2/CCCCC2=O)cc1	0.42	-1.4
Cc1nc2sccn2c(=O)c1Cl	2.8	·
COc1ccc(CCNC(=O)c2ccc3c(Cl)c4c(nc3c2)CCC4)cc1OC	0.28	2.5
O=C(c1cc(Cl)nc(Cl)c1)N1CCC(N(C2CC2)S(=O)(=O)c2cccc(C(F)(F)F)c2)CC1	-0.36	·
COc1cc(-c2c(C#N)c(N)n3c(nc4ccccc43)c2C#N)c(Cl)cc1O	14	·
CCC(C)c1ccc(NC(=S)N2CCN(S(C)(=O)=O)CC2)cc1 (stereo not given)	0.29	-0.85
CC(C)=C1C2C=CC1C1C(=O)N(c3ccccc3)C(=O)C21 (stereo not given)	0.05	0.6
CCNC(=O)c1ccc(NS(C)(=O)=O)cc1	0	-0.65
CCOC(=O)C1C(=O)NC(SCC(=O)Nc2ccc(Br)cc2)=C(C#N)C1c1ccccc1OCC (stereo not given)	0.35	·
Cc1cc(=O)[nH]c(SCC(=O)N(c2ccccc2)c2ccccc2)n1	·	0.15
CCOc1ccc(Nc2ncnc3c2cnn3-c2ccccc2)cc1	0.03	2.8
CCSc1cc(C(F)(F)F)c(C(=O)Nc2ccc(Cl)cc2)cn1	0.04	0.25
COc1ccc(C=C2C(=O)N(C)C(=O)N(C)C2=O)cc1	·	-0.15
CC(C)Nc1nc(Cl)nc(NNC(=O)C(C)Oc2ccccc2)n1 (stereo not given)	·	1.4
NC[C@@H]1O[C@H](OC2[C@@H](O)[C@H](O[C@@H]3[C@H](N)[C@@H](O)C[C@H](N)[C@H]3O[C@H]3O[C@H](CO)[C@@H](O)[C@H](O)[C@H]3N)O[C@@H]2CO)[C@H](N)[C@@H](O)[C@@H]1O (stereo not given in full)	-0.48	·
Cc1cc2cc(CNC(=O)COc3ccc4ccccc4c3)ccc2n1C	0.73	-0.4
Cc1ccc(NC(=O)c2cc(C)on2)cc1	-0.06	0.45
CCCN1C(=N)C(c2nc3ccccc3s2)=C(O)C1c1ccccc1 (stereo not given)	·	0.15
CC1Sc2cc(S(=O)(=O)NCc3ccccc3)ccc2NC1=O (stereo not given)	0.26	-0.5
Cc1cc(C(=O)N2CCOCC2)n(-c2ccccc2)n1	-2.1	-0.05
O=c1[nH]c2ccccc2n1CCCCl	0.14	-1
O=C(O)/C=C/c1csc(-c2ccc(F)cc2)n1	·	0.8
O=C(CSc1nnc(Cc2ccccc2)o1)N1CCCC1	-0.99	2.5
CCOC(=O)c1sc(NC(=O)CSc2nnc(CNC(=O)c3ccc([N+](=O)[O-])cc3)n2C)c(C(=O)OCC)c1C	-0.1	·
O=c1[nH]cc(-c2ccc(Br)cc2)n1Cc1ccccc1	·	0.7
O=C(Nn1c(Cc2ccccc2)nc2ccccc2c1=O)c1c(O)c2cccc3c2n(c1=O)CCC3	0.24	·
CCOc1ccccc1-c1noc(-c2cccc(OC)c2)n1	-0.05	-0.6
Cc1noc(C)c1CSc1nc(C)c(C)n1C1CCCCC1	·	1.1
COc1ccc(C(=O)Cn2cnc3c(C#N)c4n(c3c2=O)CCCCC4)cc1	-0.015	·
CC1CCN(Cc2nc(-c3cc(C(F)(F)F)cc(C(F)(F)F)c3)no2)CC1	1	1.4
COc1cccc(CCN2CCCC2)c1NC(=O)c1cc(OC)c(OC)c(OC)c1	-0.23	·
O=S(=O)(NCCSCc1ccco1)c1cc(C(F)(F)F)ccc1Cl	-0.15	·
COc1ccc(N=Cc2ccc(-c3ccc(F)cc3)o2)cc1	i	-0.9
CC(C)Cn1c(=O)[nH]c2ccccc21	·	1.2
More entries.
SMILES	CapD inh	AID504770
CC(C)(C)P(=Nc1ccc(Br)cc1)(N1CCOCC1)N1CCOCC1	·	0.5
O=C(O)c1cccc(N=C2NC(=O)C(CO)(CO)S2)c1	·	-0.65
CC(C)(C)c1cc(CN2C(=O)c3ccccc3C2=O)cc(C(C)(C)C)c1O	-1.9	0.95
O=C(Nc1cccnc1)c1ncoc1-c1ccc2ccccc2c1	·	-0.95
Cc1ccc(CNC(=O)c2cccnc2SCC(=O)Nc2ccc(Br)cc2F)cc1	0.59	·
CC(=O)N1CCN(C2=Nc3cccc4cccc2c34)CC1	·	0.05
O=C(N/N=C/c1ccc[nH]1)c1cccc(Cl)c1	-1.3	0.75
Cc1nn(-c2ccccc2)nc1C(=O)NC(=O)N1CC(C)OC(C)C1 (stereo not given)	0.055	-0.25
Oc1c(Cl)cc(Cl)cc1C1c2cccn2CC2CCCCN21 (stereo not given)	0.19	1.1
Cc1ccc2nc(Cl)c3cc(C(=O)NCCN4CCN(C)CC4)sc3c2c1	0.7	0.5
N#CCc1ccc(N=Cc2cc(Br)ccc2O)cc1	-0.58	·
COc1ccc(C(=O)NNC(=O)C2C3C=CC(C3)C2C(=O)O)cc1 (stereo not given)	0	·
O=C(O)CSC(=S)N1CCCC1	0.37	-0.85
C=CC(=O)NC1(CCC)CCCCC1	0.3	-0.05
COc1cc(OC)nc(CN2CCN(Cc3ccccc3)CC2)n1	-0.58	·
O=C(N/N=C/c1c(Cl)cccc1Cl)c1sc2ccccc2c1Cl	-0.99	·
O=C(c1ccsc1)N1CCCN(Cc2ccc(Cl)c(Cl)c2)CC1	-0.42	·
O=C(NC(=O)N1CCOCC1)c1ccc(S(=O)(=O)N2CCOCC2)cc1	0.6	1.2
Cc1cc(C)n(C(=O)CNC(=O)c2cccs2)n1	0.38	-0.65
CCOc1ccc(CNC(=O)C2CCCN2S(=O)(=O)c2ccc3c(c2)CCCC(=O)N3)cc1 (stereo not given)	0.22	0.55
COc1ccc(CCNS(=O)(=O)c2ccc(C)cc2)cc1OC	-0.48	1.7
CC12CC(c3ccccc3O1)C(C(=O)O)C(=O)N2CCC1=CCCCC1 (stereo not given)	·	1.1
COc1cc(-n2c(=S)[nH]c3cc(Cl)ccc3c2=O)c(Cl)cc1Cl	0.08	·
CC(=O)OC(C(=O)NCc1ccc2c(c1)OCO2)c1ccccc1Cl (stereo not given)	·	0.35

A portion from the list above, as a working copy:
SMILES	CapD inh	AID504770
COc1ccc(CCNS(=O)(=O)c2ccc(C)cc2)cc1OC	-0.48	1.7
CC12CC(c3ccccc3O1)C(C(=O)O)C(=O)N2CCC1=CCCCC1 (stereo not given)	·	1.1
COc1cc(-n2c(=S)[nH]c3cc(Cl)ccc3c2=O)c(Cl)cc1Cl	0.08	·
CC(=O)OC(C(=O)NCc1ccc2c(c1)OCO2)c1ccccc1Cl (stereo not given)	·	0.35

Later entries
SMILES	CapD inh	AID504770
CCOC(=O)c1c(N)sc(=S)c2c1CCC2	-0.73	-0.45
O=C(CSCc1cccc2ccccc12)Nc1ccc(C(F)(F)F)cc1	0.15	0.1
C/S(=N\S(=O)(=O)c1ccc(Cl)cc1)c1ccccc1 (stereo not given)	-0.075	1.4
O=C(CSc1nc(N2CCOCC2)nc(N2CCOCC2)n1)c1ccccc1	0.17	0.85
COc1ccc(C2NC(=O)NC(C)=C2C(=O)c2ccccc2)cc1OC (stereo not given)	0.97	-0.3
O=C(c1ccc2c(c1)N(Cc1ccccc1)C(=O)c1ccccc1S2=O)N1CCN(C(=O)c2ccco2)CC1 (stereo not given)	-0.14	-0.8
CCOC(=O)N1CCC(NC(=O)c2ccc(Cn3c(=O)[nH]c4cc(OCC)c(OCC)cc4c3=O)cc2)CC1	7.8	0.6
COc1cccc(NS(=O)(=O)c2ccc3c(c2)CC(C)N3C(=O)C2CC2)c1 (stereo not given)	-0.08	0.05
CCOC(=O)c1cc2cc(Cl)ccc2o1	-0.53	-0.5
CCOc1ccc2nc(N3CCC(C(=O)NCC4CCCO4)CC3)sc2c1 (stereo not given)	-0.52	-0.15
CC(C)COc1ccc(C2Nc3ccccc3C(=O)N2c2ccc(Cl)c(Cl)c2)cc1 (stereo not given)	0.9	·
COc1ccc(-c2cc(C(F)(F)F)nc(SCC(=O)N(C)Cc3cn(C)nc3C)n2)cc1OC	-1.3	-0.8

Complete entries, looked up by structure. Order of screens: CapD inh	AID504770
`O=C(O)CSC(=S)N1CCCC1` is listed with 0.37	-0.85
`Cc1nc2sccn2c(=O)c1Cl` is listed with 2.8	·
`O=C(CSc1nnc(Cc2ccccc2)o1)N1CCCC1` is listed with -0.99	2.5
`CCOC(=O)C1C(=O)NC(SCC(=O)Nc2ccc(Br)cc2)=C(C#N)C1c1ccccc1OCC` (stereo not given) is listed with 0.35	·
`O=S(=O)(NCCSCc1ccco1)c1cc(C(F)(F)F)ccc1Cl` is listed with -0.15	·

Continued:
SMILES	CapD inh	AID504770
COc1ccccc1N1CCN(C(=O)c2sc3ncnc(N4CCN(c5ccccn5)CC4)c3c2C)CC1	-0.035	·
O=C(Nc1ccccc1)c1ccco1	·	-0.25
O=C(Nc1cccnc1)c1cccn(Cc2ccc(C(F)(F)F)cc2)c1=O	0	·
COc1ccc(SCc2nsc(Sc3ccc(OC)cc3)n2)cc1	0.29	-0.7
CCC(C)(C)n1nnnc1C(c1ccc(Cl)cc1)N1CCN(c2nc3ccccc3s2)CC1 (stereo not given)	·	-0.6
CCc1ccc2c(c1)c1nnc(SCC(=O)c3ccc(OC)cc3)nc1n2C	·	0.2
CCN(CC)S(=O)(=O)c1ccc2c(c1)CCCN2C(=O)OC	0.78	1.1
COc1ccc(C2CC(=O)C3=C(C2)Nc2ccccc2NC3c2ccccc2C(F)(F)F)cc1OC (stereo not given)	-0.31	·
Cc1cccc(C)c1NC(=S)N1CCCC1=O	0.9	-0.05
C=CCN1C(=O)NC(=O)/C(=C/c2ccccc2OCc2ccc(F)cc2)C1=O	2.8	0.1
CC(=O)N1CCN(c2ccccc2NC(=S)NC(=O)CC(C)C)CC1	-0.9	2.9
Cc1ccc2nc(SCC(=O)N3CCc4ccccc43)nc(=O)n2c1	·	-0.8

An excerpt from above in order of number of heavy atoms, highest first.
SMILES	CapD inh	AID504770
COc1ccc(C2CC(=O)C3=C(C2)Nc2ccccc2NC3c2ccccc2C(F)(F)F)cc1OC (stereo not given)	-0.31	·
Cc1ccc2nc(SCC(=O)N3CCc4ccccc43)nc(=O)n2c1	·	-0.8
O=C(Nc1ccccc1)c1ccco1	·	-0.25

The results go on:
SMILES	CapD inh	AID504770
COc1ccc(C2=C3NN=C(N)N3NN2)cc1	-3.7	-0.35
O=C(O)CCn1nc(-c2cccs2)oc1=O	·	0.65
Cc1ccc(Sc2ccc(C(=O)Nc3ccc(F)cc3)cc2[N+](=O)[O-])cc1	0.1	·
C1=C(c2cc3ccccc3o2)SC2=NCCN12	·	0.75
CCc1ccc(C2c3c(-c4ccccc4O)n[nH]c3C(=O)N2CCO)cc1 (stereo not given)	0.22	0
O=C(c1cc2nc(-c3ccc4c(c3)OCO4)cc(C(F)(F)F)n2n1)N1CCOCC1	0.62	·
COC(=O)c1sc(C(=O)OC)c(O)c1O	0.055	-2.3
O=C(O)CCC(=O)Nc1ccc(OC(F)(F)F)cc1	0.18	-0.65
CCOC(=O)c1ccccc1NC(=O)c1ccncc1	·	-0.35
O=C(c1c[nH]c2ccccc2c1=O)N(Cc1ccccc1)Cc1ccccc1	-0.045	-0.5
COc1ccc(S(=O)(=O)NCc2ccco2)cc1OC1CCCC1	0.29	1.9
COc1ccc(N(CC(O)CN2CCCCC2)S(=O)(=O)c2ccc(C)cc2)cc1 (stereo not given)	-0.01	·
O=c1c(Oc2ccccc2)c(C(F)(F)F)oc2c(O)c(O)ccc12	-0.57	-0.95
CCCN(CCC)C(=O)Cn1c(SCc2cccc(Cl)c2)nc2ccncc21	4.5	-0.5
Cc1ccc(C)n1-c1ccc(C#Cc2ccc(-n3c(C)ccc3C)cc2)cc1	4.5	·

Compound activity as filed in PubChem.
